Source: PubChem (several laboratories)
HNF4A DNA FP – change in binding of human HNF4 alpha to DNA. HNF4a-FITC DNA binding, fluorescence polarization, 1 h. 360,000 compounds, 0.3% hits. P41235. activity change, % at 10 µM; in the data active = activity change above about 30%, passing the limit was not always enough;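 note: controls were the assay level and a saturating level of protein; the project sought stronger binding though the title names inhibitors; some compounds called inactive have numbers as strong as hits; positive values seem to mean higher polarization but the record does not say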
Target sequence (P41235 whole entry, looked up): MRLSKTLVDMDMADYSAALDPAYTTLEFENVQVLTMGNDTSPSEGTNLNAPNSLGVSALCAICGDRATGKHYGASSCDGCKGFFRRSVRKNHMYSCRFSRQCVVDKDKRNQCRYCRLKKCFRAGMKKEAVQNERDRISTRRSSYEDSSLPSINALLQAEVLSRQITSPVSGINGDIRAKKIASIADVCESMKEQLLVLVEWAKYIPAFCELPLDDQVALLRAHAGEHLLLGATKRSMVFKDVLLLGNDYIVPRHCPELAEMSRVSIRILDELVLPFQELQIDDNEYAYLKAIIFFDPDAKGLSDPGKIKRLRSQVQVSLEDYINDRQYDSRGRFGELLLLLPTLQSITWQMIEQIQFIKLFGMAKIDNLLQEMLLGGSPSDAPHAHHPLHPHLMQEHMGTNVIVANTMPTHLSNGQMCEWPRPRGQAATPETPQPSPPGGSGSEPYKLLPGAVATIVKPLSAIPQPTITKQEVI
Vif A3G – inhibitors of Vif binding to APOBEC3G peptide, primary screen, biochemical, TR-FRET, GST-Vif 1-94, biotin-A3G peptide, dose response retest (AID 1117319). TR-FRET GST-Vif / biotin-A3G peptide binding; higher % means a stronger effect; test concentration not given here; strong numbers were not always called active. inhibition, %; hits with a dose series show IC50 in µM. 260,000 compounds, 0.57% hits;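 active = above the screen mean plus three standard deviations and confirmed in dose response; inconclusive = results disagree or hit not tested in dose response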;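 note: Vif residues 1-94 fused to GST binding biotinylated APOBEC3G peptide 110-148; 0% = full assay without inhibitor and 100% = GST in place of GST-Vif; retest series ran down from 100 µM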
LANA-H2B inh – blocks KSHV LANA binding to histone H2A/H2B; Q9QR71; cell-free LANA-H2A/H2B peptide, fluorescence polarization; inhibition, % (test concentration not listed); 320,000 compounds, 0.6% hits; AID 2629; in the data active = inhibition mostly above about 10%, no sharp cut-off; inactive = mostly below about 6.7%;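 note: stock transfer was 7.5 nL into about 10 µL; 0% = median of vehicle wells and 100% = median of positive control wells; one replicate is shown; the record names a cut of 25% in any replicate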
Bfl-1 A1 inh – inhibitors of the anti-apoptotic protein A1, read as caspase activation; MEF A1-2A-BIM cells, Caspase-Glo 3/7 luminescence, 3 h; percent of clofoctol response, vehicle zero; caspase activation, % (concentration not given with the values); 330,000 compounds, 0.066% hits;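 active = over half of replicate activation scores above 10%, or exactly half above 10 with the replicate mean above 10; inconclusive = replicate mean below 10 yet half the replicates above 10; inactive = over half of replicates below 10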;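 note: wells of about 30 µL received 50 nL stock; many hits fall short of the cut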
E coli growth – E. coli growth inhibition; Escherichia coli growth, OD600, 23 h; stronger effect = lower value; OD600 absorbance (no concentration beside the values); 330,000 compounds, 0.21% hits; AID 1053175;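 active = OD600 absorbance below the run mean of sample wells minus 3.6 SD, in any replicate, cut at about 0.56 in these data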;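 note: stock transfer was 300 nL into about 60 µL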
B2AR ag – activates human beta-2 adrenergic receptor causing internalization; Am2.2-beta2AR cells, FAP receptor internalization, flow cytometry; reference of the scale not given here; response, % (no concentration beside the values); 340,000 compounds, 0.43% hits; AID 504454; P07550;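 active = response above a set limit, near 3 SD of response in nonfluorescent compounds, cut at about 42% in these data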;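 note: stock transfer was 100 nL into about 11 µL; a reference agonist was the positive control; negative values mostly stem from fluorescent compounds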
UCH37 DUB inh – human UCH37 deubiquitinating enzyme inhibition. AID 588478. inhibition, % (concentration not given with the values). 330,000 compounds, 0.33% hits. purified proteasome/UCH37, Ub-AMC cleavage fluorescence. Q9Y5K5;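 active = mean of two replicates above 20%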;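 note: 0% = compound-free wells with enzyme and 100% = wells lacking proteasome; stock transfer was 100 nL into about 20 µL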
Target sequence (Q9Y5K5 whole entry, looked up): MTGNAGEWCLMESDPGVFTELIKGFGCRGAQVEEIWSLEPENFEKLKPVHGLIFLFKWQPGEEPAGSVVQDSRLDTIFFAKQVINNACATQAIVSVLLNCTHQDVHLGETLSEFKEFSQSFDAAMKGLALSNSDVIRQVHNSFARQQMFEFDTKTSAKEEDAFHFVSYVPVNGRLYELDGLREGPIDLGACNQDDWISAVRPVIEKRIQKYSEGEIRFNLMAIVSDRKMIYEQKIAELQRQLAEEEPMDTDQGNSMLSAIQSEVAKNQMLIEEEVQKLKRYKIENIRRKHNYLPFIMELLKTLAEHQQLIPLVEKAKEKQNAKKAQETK
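Test system – human UCH37 enzyme supplied as purified proteasome complex · Incubation – 30 min preincubation with enzyme, 25 min cleavage at room temperature · Detection – AMC fluorescence from Ub-AMC cleavage, excitation 355 nm, emission 460 nm · Benchmarks – no-proteasome wells (full inhibition) and compound-free wells (no inhibition)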
An asterisk follows results filed as active; ? = inconclusive; . = not tested or not shown; & = joins results of further samples.

SMILES	HNF4A DNA FP	Vif A3G	LANA-H2B inh	Bfl-1 A1 inh	E coli growth	B2AR ag	UCH37 DUB inh
O=C(CN(C(=O)CNS(=O)(=O)c1ccc(F)cc1)C1CCCC1)NCc1ccco1	1.3	-8.8%	0.1	-0.4	0.668	-3.2	3.6
Cc1ccc(OCC(=O)N(C)CC(=O)Nc2cccc(F)c2)cc1	-2.5	.	4.3	0.9	0.714	-9.1	-0.1
CCn1cc(C(=O)OCC(=O)Nc2cc(S(=O)(=O)N(C)C)ccc2C)c(=O)c2ccc(C)nc21	2.4	-4.4%	1.4	-0.5	0.598	-0.6	3.0
COc1ccc(CCNC(=O)/C(=C/c2cccnc2)NC(=O)c2ccccc2)cc1	1.9	.	4.2	0.3	0.67	-12.1	-4.7
O=C(Nc1ccccc1)c1c2c(nc3ccccc13)CCCC2	2.5	.	3.5	-0.2	0.707	1.7	5.1
CCOc1ccc(-c2cnc3n2CCC3)cc1	-2.4	-2.4%	-0.9	-0.2	0.681	-3.8	2.0
CCCNC(=O)C1CCC(CNS(=O)(=O)c2ccc3c(c2)N(C(C)=O)CCO3)CC1 (stereo unspecified)	-0.2	-2.1%	1.4	-0.6	0.624	-10.2	1.8
Cc1ccc(NC(=O)COC(=O)/C=C/c2cccc(Cl)c2)cc1S(=O)(=O)N1CCOCC1	2.7	.	2.3	0.0	0.723	-7.9	0.7
COC(=O)[C@]1(C)CCC[C@@]2(C)C3CC[C@@]4(C)C[C@]3(CCC21)CC(=O)N4C (stereo partly specified)	1.5	.	5.5	-0.1	0.712	-2.2	1.1
COc1ccc(C(C)(C)C)cc1NC(=O)CN1C(=O)C(=O)N(Cc2ccco2)C1=O	-4.1	-7.3%	-6.6	0.9	0.622	-4.6	0.2
O=C(c1cnn2c1NC(c1ccco1)CC2C(F)(F)F)N1CCN(c2cccc(Cl)c2)CC1 (stereo unspecified)	0.5	20.1%&-0.1%	0.4	-0.5	0.781	10.5	4.7
Nc1ncncc1-c1ccc(Cl)cc1	-0.6	-10.1%	-3.8	-0.4	0.605	-2.3	1.3
COCCNC(=S)N(CCc1c(C)[nH]c2ccc(F)cc12)Cc1ccc(C)cc1	-0.7	-6.7%	3.1	-0.4	0.666	1.3	-0.6
N/C(Cn1cncn1)=N\NC(=O)C(=O)Nc1cccc(C(F)(F)F)c1	0.9	10.1%	4.6	-1.1	0.642	-2.8	1.0
CC1(C)CC(NC(=O)c2ccc(Cl)cc2)CC(C)(C)N1	-0.2	.	-0.4	0.9	0.688	-1.0	2.4
Cc1ccc(S(=O)(=O)N(C)Cc2ccc(-c3nnco3)cc2)cc1	1.6	1.4%	4.9	-0.1	0.769	-3.3	2.1
COc1ccc(CC(NC(C)=O)C(=O)NC2CCN(C(=O)c3cnccn3)CC2)cc1 (stereo unspecified)	3.7	30.3%	6.9	2.1	0.691	-0.7	-4.1
O=C(CCNC(=O)c1ccc([N+](=O)[O-])cc1)NCCC1=CCCCC1	0.1	-4.2%	4.1	0.6	0.654	-4.0	5.7
COc1ccccc1C(=O)N1CC(=O)Nc2ccc(F)cc2C1c1ccccc1 (stereo unspecified)	-5.2	9.9%	-1.7	-0.4	0.596	27.2	2.2
COc1ccccc1Nc1nnc(C)c(=O)[nH]1	-1.7	-2.8%	4.7	2.1	0.708	10.9	1.9
Cc1ccc2nc(-c3ccccc3Cl)cc(C(=O)Nc3cc(C)on3)c2c1	2.5	23.6%	-7.5	0.9	0.778	5.7	-2.2
Cc1ccc(SCC(=O)OCC(=O)NCC2CCCCC2)cc1C	-4.8	12.9%	1.6	0.2	0.68	-0.1	0.7
COc1ccc([N+](=O)[O-])cc1NC(=O)COC(=O)c1ccccc1O	-2.6	.	-1.1	-0.4	0.674	6.0	2.5
O=C(NCCCN1CCCC1=O)c1cc2nc(-c3ccco3)cc(C(F)(F)F)n2n1	-3.0	.	4.3	0.1	0.67	-5.3	-145.5
CN(C)CCNC(=S)Nc1ccc(Cl)cc1	1.8	4.7%	5.1	0.1	0.717	3.3	2.7
C=CCOc1ccc(C(=O)n2cc(C(=O)OC)c3ccccc32)cc1	0.3	-1.2%	1.9	0.6	0.654	2.7	4.5
O=C(O)CN(c1ccc2c(c1)OCCO2)S(=O)(=O)c1ccccc1	3.5	2.7%	0.8	0.5	0.775	-1.3	-3.2
CC1=N/C(=C\c2ccc(OC(C)C)cc2)C(=O)N1c1ccc(C(=O)O)cc1	16.3	-5.4%	5.4	-0.7	0.652	-12.3	7.9
COc1ccc(C(=O)NC(=S)NC(C)C)cc1Br	0.6	-1.0%	-9.9	-0.4	0.706	2.7	3.1
CC(CN1CCCCC1)OC(=O)c1ccc2c(c1)OCCO2 (stereo unspecified)	-0.2	.	-2.8	-0.7	0.692	1.4	1.8
CC/C(C)=N\N=C\c1c(O)n(CC)c2cc(C3=NNC(=O)CC3)ccc12	11.3	11.1%	-3.8	0.5	.	2.7	.
CCc1nn(-c2cc(Cl)ccc2OC)c2c1C(=O)CCC2	0.2	0.3%	2.8	0.5	0.68	-8.4	1.3
Cc1ccc(NC(=O)c2cc(=O)[nH]c3ccccc23)cc1	-2.5	-6.3%	-2.1	-0.4	0.658	-3.4	3.4
Cn1cnnc1SC(C(=O)Nc1cc(Cl)cc(Cl)c1)c1ccccc1 (stereo unspecified)	-1.3	-5.5%	-0.6	0.3	0.715	2.1	1.1
O=C(Cn1cc(C(=O)C2CC2)c2ccccc21)NCc1ccccc1	-2.5	4.5%	-5.5	-0.6	0.721	-8.3	-3.4
COc1ccc2c(CC(=O)N3CCc4cc(OC)c(OC)cc4C3)coc2c1	0.4	-7.8%	-0.1	-0.2	0.653	-0.8	-0.5
COc1ccc(C(=O)C(C)OC(=O)c2cccc(S(=O)(=O)Nc3cc(Cl)c(OC)cc3OC)c2)cc1 (stereo unspecified)	-4.4	.	-0.7	0.2	0.723	4.9	6.6
O=C(COC(=O)CSc1ccc2ccccc2c1)NCc1ccc2c(c1)OCO2	2.8	-10.7%	-2.6	1.2	0.673	2.9	2.7
CCOc1ccc(Nc2c3ccccc3nc3ccccc23)cc1	1.0	26.8%	1.2	0.9	0.516*	51.9*	4.6
COc1ccc(C(=O)NC(CC(C)C)C(=O)O)cc1OC (stereo unspecified)	-1.1	?	-1.4	-1.2	0.742	5.3	2.1
COc1ccc(S(=O)(=O)N2CCC(C(=O)N[C@@H](C)C(=O)NC3CC3)CC2)cc1	-3.2	-4.2%	1.1	1.6	0.669	4.6	3.6
CC1CN(C(=O)CSc2nnc3c(Cl)cc(Cl)cn23)CC(C)O1 (stereo unspecified)	0.3	-1.9%	3.2	1.7	0.814	-5.2	1.5
Cc1ccc(SCC(=O)N=C2NC(=O)CS2)cc1	5.3	10.1%	0.1	-0.8	0.689	-10.1	5.3
Cc1[nH]c(=O)c(C#N)c(C)c1CCC(=O)N(C)CC(=O)Nc1ccc(Cl)c(Cl)c1	3.3	.	1.0	0.1	0.685	-5.3	0.1
C/C(=N/Nc1ccc(C(=O)c2c(C)cc3ccccn23)cc1[N+](=O)[O-])c1ccc(O)cc1	3.5	-4.8%	.	.	0.738	1.9	6.2
CNc1nc(Nc2ccc(C(C)=O)cc2)nc(OC(C(F)(F)F)C(F)(F)F)n1	1.7	-18.2%&-14.7%	1.5	0.5	0.763	-9.3	0.0
COCCOC(=O)c1c(C)oc2ccc(OC(=O)c3c(OC)cccc3OC)cc12	-5.3	0.1%	3.5	-0.3	0.681	13.3	0.8
CCOC(=O)N1CCN(S(=O)(=O)c2ccc(C)c(C)c2)CC1	0.8	-2.8%	3.5	-0.4	0.721	-2.3	3.5
CC12CCC(C(=O)N3CCCCC3)([C@H](Br)C1=O)C2(C)C (stereo partly specified)	2.6	5.0%	-13.3	-1.1	0.646	4.2	5.2
c1cc(-c2noc(CCC3CCCC3)n2)ccn1	3.3	-3.1%	5.3	-0.7	0.727	-3.9	-1.0
O=C(NCc1ccco1)C1CC2CCC1C2 (stereo unspecified)	-1.8	8.4%	-3.9	-0.5	0.679	7.3	4.8
O=C(CCSCCc1ccccn1)Nc1cc(F)ccc1F	-0.1	.	0.2	0.0	0.705	-3.2	4.8
Cc1ccc(CN2CCN(Cc3cnc(C)[nH]3)CC2CCO)cc1 (stereo unspecified)	-0.6	19.6%	-2.6	0.0	0.662	2.1	-1.1
CCN1CCN(CC2CC3C=CC2C3)CC1 (stereo unspecified)	2.4	.	5.1	0.7	0.706	3.9	-0.7
Cc1cc(C(=O)CSc2nnnn2-c2ccc(Cl)cc2)c(C)n1CC1CCCO1 (stereo unspecified)	-3.3	24.1%	-1.8	-0.4	0.701	-0.7	5.0
O=C(CSc1ccc2ccccc2n1)NCc1ccc2c(c1)OCO2	-1.9	-4.4%	0.3	0.5	0.669	6.6	1.3
O=C(Cn1cc([N+](=O)[O-])cn1)NCC1CCCO1 (stereo unspecified)	0.7	-9.9%	-1.3	0.2	0.721	4.6	1.4
CC1Cc2c([nH]c(=O)n(-c3ccccc3)c2=O)O1 (stereo unspecified)	-0.1	-7.3%	.	.	.	-2.3	.
CCc1ccc(C(=O)C(C)OC(=O)Cn2[nH]c(=O)c3ccccc3c2=O)cc1 (stereo unspecified)	-3.3	11.5%	.	-0.1	0.648	3.2	0.8
COCCCn1c(Cc2csc(Nc3cccc(Cl)c3)n2)nnc1SCC(=O)OC1CCCCC1	2.9	25.0%&24.9%	0.6	1.5	0.699	-2.3	0.4

Among those listed so far, these have bromine:
SMILES	HNF4A DNA FP	Vif A3G	LANA-H2B inh	Bfl-1 A1 inh	E coli growth	B2AR ag	UCH37 DUB inh
COc1ccc(C(=O)NC(=S)NC(C)C)cc1Br	0.6	-1.0%	-9.9	-0.4	0.706	2.7	3.1
CC12CCC(C(=O)N3CCCCC3)([C@H](Br)C1=O)C2(C)C (stereo partly specified)	2.6	5.0%	-13.3	-1.1	0.646	4.2	5.2

(continued)
SMILES	HNF4A DNA FP	Vif A3G	LANA-H2B inh	Bfl-1 A1 inh	E coli growth	B2AR ag	UCH37 DUB inh
O=C(Nc1nc2ccccc2s1)Nc1ccc(F)cc1F	1.1	.	-0.7	-1.5	0.705	-2.3	1.2
CC(C)Cc1cc(C(=O)Nc2c(F)cc(F)cc2Br)no1	-3.7	-7.2%	-0.2	0.7	0.733	-4.9	2.9
CCC(=O)NNC(=S)NC(=O)c1ccc(C)cc1	2.4	.	-1.5	0.1	0.502*	3.0	1.0
N#Cc1ccccc1S(=O)(=O)N1CCN(CC(O)CN2CCOCC2)CC1 (stereo unspecified)	-1.7	-6.4%	2.3	-0.1	0.707	-2.3	-0.3
CCC(C)N(NC(C)=O)c1nc(Cl)nc(NC(C)C)n1 (stereo unspecified)	-0.7	1.9%	-5.1	-0.6	0.771	1.1	1.5
O=C(O)/C=C/c1cnc[nH]1	4.8	7.3%	16.8&-1.5	0.6	.	-5.8	5.5
O=C(O)CNC(=O)CCn1nnc2ccccc2c1=O	-0.2	-2.4%	-5.9	-0.5	0.704	1.8	5.6
O=c1cc(Cl)nc2ccccn12	1.8	-3.6%	.	.	0.675	1.8	-37.0
C/C(=N\Nc1nc(C)cc(-c2ccccc2)n1)c1ccc(F)cc1	0.6	5.3%	-2.8	0.0	.	1.3	.
C=CCn1c(O)c2ccc(C(=O)N=NC(=O)COc3ccccc3F)cc2c1O	5.0	1.5%	2.3	-0.2	0.667	3.0	3.9
O=S(=O)(NCc1ccccn1)c1cc(Cl)ccc1Cl	1.0	-10.9%	5.9	0.1	0.667	3.5	1.4
